Assay outcomes as filed in PubChem.
PABP FP inh = blocks human PABP binding to poly(A) RNA | AID 2014 | 1% of 290,000 active | P11940 | fluorescence polarization | inhibition, % at 35 µM;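 active = 50% or more with normal probe brightness, or confirmed in later tests; inconclusive = above 50% with abnormal brightness, or retests that disagree; inactive = below 50% or failed in later tests; about a fifth of its hits are not listed in these tables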;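 also: calls also rest on retests at 20 µM and on dose response follow-up; controls were probe without protein and protein plus probe with vehicle; some compounds called inactive have numbers as strong as hits; many hits fall short of the cut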
Target sequence (P11940 whole entry, looked up): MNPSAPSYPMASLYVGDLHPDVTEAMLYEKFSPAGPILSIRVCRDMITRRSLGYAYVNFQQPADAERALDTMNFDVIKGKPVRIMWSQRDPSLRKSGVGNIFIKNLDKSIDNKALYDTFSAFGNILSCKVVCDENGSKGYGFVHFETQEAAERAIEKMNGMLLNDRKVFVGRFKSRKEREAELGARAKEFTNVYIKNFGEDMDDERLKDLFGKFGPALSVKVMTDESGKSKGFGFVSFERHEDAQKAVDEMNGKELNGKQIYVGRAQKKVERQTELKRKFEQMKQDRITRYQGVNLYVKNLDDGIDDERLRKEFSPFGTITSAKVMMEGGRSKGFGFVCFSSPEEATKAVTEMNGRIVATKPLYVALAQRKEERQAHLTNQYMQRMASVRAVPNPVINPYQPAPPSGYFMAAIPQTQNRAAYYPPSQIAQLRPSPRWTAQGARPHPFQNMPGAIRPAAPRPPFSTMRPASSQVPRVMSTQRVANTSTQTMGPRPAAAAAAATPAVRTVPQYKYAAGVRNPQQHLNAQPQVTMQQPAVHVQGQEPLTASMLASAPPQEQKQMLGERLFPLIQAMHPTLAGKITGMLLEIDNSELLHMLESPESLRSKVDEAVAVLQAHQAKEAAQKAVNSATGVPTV
Rce1 inhib = yeast Ras-converting enzyme inhibition. Q03530. yeast membranes, quenched prenylated peptide cleavage fluorescence. calls only. 0.27% of 290,000 active;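 active = fall in fluorescence gain of 50% or more versus controls, with final raw signal at or below 3038400; inconclusive = same 50% fall but final raw signal above 3038400; inactive = fall in fluorescence gain under 50%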;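 also: plate controls were neutral control wells for no effect and wells lacking membranes for full effect; tested at 10 µM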
eIF4H inh = inhibitors of RNA binding by human eIF4H | Q15056 | eIF4H fluorescence polarization binding assay | inhibition, % at 35 µM | 0.94% of 290,000 active;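 active = 50% or more with normal probe brightness, or confirmed in later tests; inconclusive = above 50% with abnormal brightness, or retests that disagree; inactive = below 50% or failed in later tests; about a fifth of its hits are not listed in these tables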;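 also: calls also rest on retests at 20 µM and on dose response follow-up; 0% = protein and probe with vehicle and 100% = probe without protein; strong numbers were not always called active; many hits fall short of the cut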
HIV Env fusion = HIV envelope-mediated fusion inhibition; HeLa-JRFL Env/CEM21 cell fusion, luciferase; inhibition, % at 12.3 µM; 1.1% of 360,000 active; AID 651610;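 active = mean replicate inhibition score of at least 50 and every replicate individually at or above 50; inconclusive = only one of the two criteria met; inactive = mean below 50 and not all replicates reaching 50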;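 also: 0% = plate neutral controls and 100% = maraviroc near 300 nM; one replicate is shown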
MT1-MMP act inh = MT1-MMP (human) activation inhibition | GFP/RFP ratio change, % at 20 µM | HT1080 RFP-PRO-GFP cells, GFP/RFP ratio fluorescence, overnight; percent of plate control window, DMSO zero | 0.061% of 360,000 active | P50281;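 active = GFP/RFP ratio change of at least 30% with cell ATP level not reduced by more than half and red fluorescence within 50% of control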; also: strong numbers were not always called active
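Material – HT1080 RFP-PRO-GFP cells · Control set – DMSO wells and RFP-L50D-GFP cells · Incubation – overnight cell settling, then overnight compound exposure, 37 °C, 5% CO2 · Compound dosing – single-point 20 µM compound, 1% DMSO · Read-out – GFP/RFP fluorescence ratio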
Yeast UUG start = alters start codon recognition fidelity in yeast | AID 602363 | 0.13% of 350,000 active | activity score, % at 18.7 µM | S. cerevisiae UUG-firefly luciferase reporter, luminescence/redox ratio;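 active = replicate mean at a twofold rise or more, about +100% in these data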;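 also: firefly luciferase made from a UUG start codon reports start codon fidelity; reporter light over untreated wells divided by growth signal over untreated wells; some hits fall short of that in this replicate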
CSC inhib = cancer stem cell inhibition; 1.1% of 300,000 active; cancer stem cell-like cells viability, luminescence; inhibition, % at 7.5 µM;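 active = mean at 75% or more and at least half the replicates too; inconclusive = mean and replicates disagree; tested in HMLE shEcad cells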;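 also: 0% = median of negative and 100% = median of positive control wells; the first replicate is given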
eIF4H inh retest = second read-out of eIF4H inh, no call of its own (marks repeat the call); inhibition, %; compound at 20 µM; confirmation average;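 mean of two retest wells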
PABP FP inh retest = further read-out of PABP FP inh, marked with its call; inhibition, %; compound at 20 µM; confirmation repeats;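 mean of two retest wells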
MT1-MMP act inh RFP = also measured in MT1-MMP act inh; calls as there; RFP signal change, %; measured here: RFP expression control read;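 0 = vehicle wells; hits needed this value within 50% of zero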
Numbers without * were called inactive; i = inactive; u = inconclusive; x = no result given; + = active, no number. An excerpt, so the mix of outcomes need not match the whole.

SMILES | PABP FP inh | Rce1 inhib | eIF4H inh | HIV Env fusion | MT1-MMP act inh | MT1-MMP act inh RFP | Yeast UUG start | CSC inhib | others
FC(F)(F)Oc1ccc(NC2=NCCCS2)cc1 | 4 | i | -1 | -10 | 4 | 3 | -8 | x
COC(=O)C1=C(c2ccc(F)cc2F)C[C@@H]2CC[C@H]1N2C(=O)N1CCC(O)CC1 | x | x | x | 4 | -1 | 3 | 4 | 4
O=C1C2CCN(CC2)[C@@H]1Cc1ccc2ccccc2c1O | -3 | i | 4 | x | -3 | 5 | -6 | -8
COc1cccc(N=Nc2c(O)[nH]c(=S)[nH]c2=O)c1 | -5 | i | 7 | -7 | 9 | 1 | x | 6
CCC1CCCCN1CC(=O)c1ccc(OC(F)F)cc1 (stereo not given) | 16 | i | 0 | -31 | -2 | 3 | -10 | 3
O=[N+]([O-])c1ccc(C[n+]2c(-c3ccccc3)cc(-c3ccccc3)cc2-c2ccccc2)cc1 | x | + | x | 9 | 11 | -10 | -1 | 18
CCN1C(=O)NC(=O)/C(=C/c2cc(C)n(-c3sc(C)c(C)c3C#N)c2C)C1=O | 14 | i | u | -11 | -7 | -1 | 13 | 3
CCCCNC(=O)Nc1ccc(C(O)(C(=O)OCC)C(F)(F)F)cc1 (stereo not given) | 1 | i | 0 | -7 | 4 | 2 | -16 | -15
CC[C@H]1CN2CCC1C[C@@H]2[C@@H](O)c1ccnc2ccc(OC)cc12 (stereo not given in full) | x | x | x | -20 | -1 | 0 | 28 | x
CN(C)c1cc(N)c2c(n1)CCC2 (tested in a mixture with another compound) | 12 | i | 5 | -47 | 2 | 1 | 1 | 9
C=C(COC(=O)CCC(=O)O)CC1CC(O)[C@]2(C)OC3CC4OC5C[C@]6(C)O[C@]7(C)CCC8OC9C[C@]%10(C)OC%11C(C)=CC(=O)OC%11CC%10OC9C[C@@H](C)C8OC7CC6O[C@]5(C)C/C=C\C4OC3CC2O1 (stereo not given in full) | 8 | x | 0 | x | 16 | -6 | 9 | x
Cn1c(=O)c2nncnc2n(C)c1=O | -2 | i | 23 | 5 | 0 | 7 | -10 | 2
COc1cccc(C2(C#N)CCN(C)CC2)c1 | 12 | i | 4 | -6 | -2 | -1 | x | -2
Cc1cc(C)cc(NC2=NCCCS2)c1 | -16 | i | -11 | 11 | -3 | -2 | x | -17
CC(=O)N1CCN(c2ccc(N=Cc3c(O)n(-c4ccc(Cl)cc4)c(=O)[nH]c3=O)cc2)CC1 | 25 | i | 13 | x | -4 | 2 | -7 | -9
Cc1nc2c(C(=O)N3CCC4(CC3)OCCO4)cnn2c(C)c1Cc1cccc(Cl)c1 | 3 | i | -5 | 7 | 0 | -3 | 9 | -18
Cc1ccc2c(c1)c(=O)c1c3n2CCN(CC2CO2)C3CC1 (stereo not given) | 4 | i | 12 | -14 | 2 | 3 | x | 12
CCN(CC)c1ccc(N=Cc2c(O)n(-c3cc(OC)ccc3OC)c(=O)[nH]c2=O)cc1 | 0.1* | i | 99* | x | -5 | 2 | -11 | 13 | eIF4H inh retest=107*;PABP FP inh retest=87*
CC(=O)O[C@@H]1CC[C@]2(C)C3CC[C@]4(C)C(=O)[C@H](O)CC4C3[C@@H](OC(C)=O)C[C@H]2C1 (stereo not given in full) | x | x | x | 19 | 2 | -1 | -3 | 12
CC(C)OP(=O)(OC(C)C)C(NCc1ccccc1)c1ccccc1 (stereo not given) | 10 | i | 2 | 11 | -7 | 1 | -4 | -10
O=c1[nH]c(=S)[nH]c(O)c1N=Nc1ccc(SC(F)F)cc1 | u | i | u | -327 | 9 | -2 | -12 | 20
O=C1CC2OCC=C3CN4CCC56c7cc([N+](=O)[O-])ccc7N1C5C2C3CC46 (stereo not given) | -10 | i | 5 | 14 | 0 | 5 | -12 | -10
CN1C(=O)/C(=C/c2cccn2-c2ccc3ccccc3c2)C(=O)NC1=S | 22 | i | 31 | x | -3 | 11 | 17 | 43
Cc1ccc(S(=O)(=O)Cc2ccc(C(=O)N3CCC4(CC3)OCCO4)o2)cc1 | 34 | i | 55 | -30 | -3 | 1 | 1 | -14 | eIF4H inh retest=9;PABP FP inh retest=5
CCCCC1(CC)COP(=O)(OCC(Cl)(Cl)Cl)OC1 (stereo not given) | x | x | x | 14 | 2 | 4 | -15 | x

Among those listed so far, 2 have a CF3 group:
SMILES | PABP FP inh | Rce1 inhib | eIF4H inh | HIV Env fusion | MT1-MMP act inh | MT1-MMP act inh RFP | Yeast UUG start | CSC inhib | others
FC(F)(F)Oc1ccc(NC2=NCCCS2)cc1 | 4 | i | -1 | -10 | 4 | 3 | -8 | x
CCCCNC(=O)Nc1ccc(C(O)(C(=O)OCC)C(F)(F)F)cc1 (stereo not given) | 1 | i | 0 | -7 | 4 | 2 | -16 | -15

The list goes on.
SMILES | PABP FP inh | Rce1 inhib | eIF4H inh | HIV Env fusion | MT1-MMP act inh | MT1-MMP act inh RFP | Yeast UUG start | CSC inhib | others
CC(=Nc1ccc2c(c1)CCC2)c1c(O)n(C2CCCCC2)c(=O)[nH]c1=O | 11 | i | 14 | -9 | -3 | 2 | -9 | -15
C=C(C)Cn1c(=O)n(CC2CS2)c2ccccc21 (stereo not given) | 14 | i | 0 | x | -2 | 0 | x | -4
COC(=O)C1=C(c2cccc(OCc3ccccc3)c2)C[C@@H]2CC[C@H]1N2C(=O)NC1CCN(Cc2ccccc2)CC1 | x | x | x | -84 | 2 | -4 | 7 | 22
CCN(CC)c1ccc([N+](=O)[O-])c2cccnc12 | -13 | i | 44 | 6 | 3 | -5 | x | -14
COc1ccccc1NC(=O)COC(=O)c1cc(C)n(C2CC2)c1C | x | x | x | -6 | 1 | 5 | -18 | -9
Cc1ccc(OP(=O)(NC(C)c2ccccc2)Oc2ccc(C)cc2)cc1 (stereo not given) | 6 | i | -4 | 2 | -4 | -5 | x | -8
O=C(Cn1cnc2ccccc2c1=O)NCC(=O)N1CCC2(CC1)OCCO2 | 20 | i | -7 | x | -1 | 7 | 16 | -5
CN(C)C(=O)Oc1ccc2c(c1)O/C(=C\c1cccc(Cl)c1)C2=O | -8 | i | -8 | -27 | -1 | 0 | -10 | -6
C=CCn1c(O)c(C(C)=NCCCN(C)C)c(=O)[nH]c1=O | 0 | i | 0 | 1 | 2 | -1 | x | -5
COC(=O)C1=C(c2c(C)noc2C)C[C@@H]2CC[C@H]1N2C(=O)NCc1ccc2c(c1)OCO2 | x | x | x | 15 | -2 | 0 | -3 | 3
CN(C)c1ccc(C2C3C=CC(C3)C2(C#N)C(=O)O)c(Br)c1 (stereo not given) | 1 | i | -14 | 25 | 2 | -2 | -5 | -4
C/C(=N/O)c1ccc2ccc3ccccc3c2c1 | x | i | x | 31 | -3 | -4 | x | 8
O=C(COc1ccc(Br)cc1)N1CCN(Cc2ccncc2)CC1 | 22 | x | 11 | x | 3 | -4 | -13 | x
Cn1c(O)c(/C=N/c2ccccn2)c(=O)n(C)c1=O | 0 | i | -18 | x | 5 | 4 | 0 | 0
Cc1c(C(=O)Nc2ccccc2)c2cc(O)ccc2n1Cc1ccccc1 | 3 | i | -2 | 20 | -1 | -10 | -10 | 0
C[C@@H]1CN([C@@H](C)CO)C(=O)CCCn2nncc2CO[C@@H]1CN(C)C(=O)Oc1ccc2ccccc2c1 | x | x | x | 12 | 4 | 4 | -2 | x
COC(=O)c1ccccc1OP(=O)(c1cccc([N+](=O)[O-])c1)c1cccc([N+](=O)[O-])c1 | 19 | i | -7 | -7 | 1 | 3 | x | -6
OC1(c2cccnc2)CC2CCC(C1)N2Cc1nnnn1Cc1ccccc1 (stereo not given) | 5 | i | 2 | x | 8 | -1 | 2 | -6
CCOc1ccc(NC(=O)C2C3c4ccccc4C(c4ccccc43)C2C(=O)O)cc1 (stereo not given) | -1 | i | -11 | 19 | -3 | -5 | x | -14
CC(Cc1ccc(O)cc1)NCC(O)c1ccc(O)c(O)c1 (stereo not given) | x | x | x | 1 | 1 | 6 | -10 | x
O=C(NC[P+](=O)O)OCc1ccccc1 | 9 | i | 0 | x | -1 | 3 | -7 | 9
c1cc2c(cc1N1CCCCC1)CNCc1cnnn1-2 | x | x | x | -1 | 5 | 6 | -8 | x
COc1ccccc1C(=O)Nc1ccc2c(c1)CC1(C(=O)N(C)C(=O)N(C)C1=O)C1CCCN21 (stereo not given) | -7 | i | -9 | 12 | -5 | 3 | -7 | -10
CC[C@@H](CO)C1CC2NC3CC4(c5ccccc5N(C)[C@@H]24)C(O)C31 (stereo not given in full) | x | i | x | x | 5 | 6 | -2 | -4
Cc1c(Br)c(=O)oc2cc(OCC(=O)N3C[C@H]4C[C@@H](C3)c3cccc(=O)n3C4)ccc12 | 0 | x | -2 | x | 3 | 3 | -5 | -11
SMILES | PABP FP inh | Rce1 inhib | eIF4H inh | HIV Env fusion | MT1-MMP act inh | MT1-MMP act inh RFP | Yeast UUG start | CSC inhib | others
COc1ccc(OC)c(NP(=O)(Oc2ccccc2)Oc2ccccc2)c1 | 7 | i | -12 | 8 | -1 | -4 | -14 | 0
CN1CCN(c2ccc(NC(=O)Oc3ccccc3)cc2)CC1 | 17 | i | -18 | 24 | -9 | -5 | 54 | -7
CCCNC(=O)N1[C@H]2CC[C@@H]1C(C(=O)OC)=C(c1ccc3ccccc3c1)C2 | x | x | x | x | 1 | -2 | 0 | 12
CCOC(=O)c1c(C)n(Cc2ccccc2)c2ccc(O)cc12 | 10 | i | -4 | 7 | 7 | -9 | x | -13
COC(=O)C(O)(c1cn(C)c2ccccc12)C(F)(F)F (stereo not given) | -11 | i | 4 | x | 0 | 1 | 6 | -4
CCOC(=O)Cn1cc(C(=O)c2ccccc2F)c2ccccc21 | 2 | i | -8 | 8 | 5 | 5 | -10 | -7
Cc1cccc2c1=NC(=O)/C(=C/c1c(O)[nH]c(=O)[nH]c1=O)C=2 | 6 | i | -13 | -14 | 1 | 0 | x | -3
CCOc1ccc(-n2c(O)c(N=Nc3ccc([N+](=O)[O-])cc3)c(=O)[nH]c2=O)cc1 | -10 | i | -2 | 5 | 6 | 0 | x | 28
Cc1c(NS(=O)(=O)c2ccccc2)ccc([N+](=O)[O-])c1Cl | x | x | x | 19 | 4 | -30 | -14 | x
CN1CCN(Cc2nnc3n2-c2ccc(Cl)cc2C(c2ccccc2)=NC3)CC1 | 3 | i | 18 | x | -2 | 5 | -14 | -12
CC1CN(C)C(C)(C)CC1(O)c1ccccc1 (stereo not given) | 1 | i | -9 | x | -1 | 4 | x | -8
O=c1[nH]c(=S)n(-c2ccc(Cl)cc2)c(O)c1/C=N/N1CCOCC1 | 0 | i | -2 | 9 | -1 | 1 | -26 | -2
CCC(C)n1c(O)c(/C=N/NC(=O)c2ccncc2)c(=O)[nH]c1=S (stereo not given) | -6 | i | 28 | 3 | 23 | 24 | x | 17
Cc1cc(=O)oc2cc(OCC(=O)N3CCN(Cc4ccccc4)CC3)ccc12 | x | x | x | -12 | 0 | 1 | -14 | -14
C[C@]12CC[C@H](O)CC1=CCC1C2CC[C@@]2(C)C1CC[C@@H]2OCc1ccccc1 (stereo not given in full) | x | x | x | 0 | 4 | 6 | -27 | -11
N#Cc1cc2c(nc1SCC(=O)Nc1cc(Cl)ccc1Cl)C1CCN2CC1 | 16 | i | 7 | -57 | 0 | -6 | -7 | 45
COC(=O)C1=C(c2ccc(S(C)(=O)=O)cc2)C[C@@H]2CC[C@H]1N2C(=O)N1CCOCC1 | x | i | x | -17 | 0 | 3 | -6 | -19
